# Six1-Eya2 inh = blocks human Six1 binding to Eya2; Q15475+O00167; hit rate 0.56% among 360,000; AlphaScreen GST-Six1/His-Eya2 binding, biochemical; stronger effect = lower value; control for the full effect not named in the record; activity change, % (test concentration not listed); in the data active = activity change below about -65%; inconclusive = about -30% to -65%; inactive = above about -30%; further: on the % scale 0 is the no-effect control and ±100 the full control effect; compound concentration not given in the record
#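 AlphaScreen with GST-Six1 and His-Eya2 (5X mix: 250 nM and 500 nM), glutathione donor and nickel acceptor beads; buffer 50 mM Tris pH 8.0, 300 mM NaCl, 1 mM TCEP; 1 h at 37 C in the dark.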
# CtBP-E1A blk = CtBP/E1A binding inhibition | activity change, % (test concentration not listed) | AID 651724 | AlphaScreen GST-E1A/His-CtBP binding, 1536-well; stronger effect = lower value; control for the full effect not named in the record | hit rate 0.49% among 340,000; in the data active means activity change below about -65%; inconclusive means about -30% to -65%; inactive means above about -30%; further: on the % scale 0 is the no-effect control and ±100 the full control effect; compound concentration not given in the record
#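 Homogeneous bead-based format: GST-tagged E1A captured on glutathione donor beads, His-tagged CtBP on nickel acceptor beads; compounds precede bead addition by 2 h at 37 °C.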
# Sfp inh = blocks B. subtilis Sfp PPTase activity; Biochemical Sfp PPTase activity, qHTS; Potency, µM, for the others: max response, negative = inhibition, actives largely listed as inhibitors; hit rate 3.5% among 310,000; Q9F4F7; active means well fitted inhibition curve with a large enough effect; inconclusive means small, poorly fitted or top-dose-only effect, or another doubt; inactive means no such curve, though single readings can be large or run the other way;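 further: the enzyme is Sfp with the accession as filed and its product quenches rhodamine fluorescence; potency means the concentration at half of the fitted maximal effect; 0% = enzyme reaction without inhibitor and -100% = no enzyme wells; top concentration of the series not given in the record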
#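 Fluorescence-quenching assay: 15 nM Sfp-PPTase preincubated 15 min at room temperature with compound, then 5 uM rhodamine-CoA and 12.5 uM BHQ-2-labelled YbbR peptide added. Fluorescence (ex 525/em 598 nm) read at start and after 30 min; difference gives rate.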
# TRPV1 PAM = human TRPV1 potentiation | Q8NER1 | TRPV1-expressing cells, Fluo-8 calcium influx, capsaicin EC20 potentiation; host cell line not named in the record; control for the full effect not named in the record | potentiation, % at 8.33 µM | hit rate 0.02% among 320,000 | AID 540277; active means potentiation above 80%; inconclusive means 30% to 80%; inactive means below 30%; further: 0% is about no effect
#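 Fluo-8 calcium influx in TRPV1-expressing cells, kinetic read (ex 480/em 520 nm). Compound added and read 3 min for agonist activity, followed by capsaicin at EC20 final and 2 min further read for enhancement.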
# PINK1 expr mod = modulators of PINK1 expression; PINK1 immunofluorescence, high-content cytometry, 24 h; AID 624263; hit rate 0.2% among 410,000; Potency, µM (top dose mostly 76.6 µM), for inactives: top-dose activation (PINK1 increase), hits mostly activators; active = well fitted activation curve with a large enough effect; inconclusive = small, poorly fitted or top-dose-only effect; inactive = flat fitted curve, though single readings scatter; cell line not stated here;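 further: potency means the concentration at half of the fitted maximal effect; % of control where 0% means no effect; nearly all actives have a fitted effect of over 65% in size; a mitochondrial uncoupler was the plate control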
#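 A stable cell line was treated with compounds at 5 concentrations for 24 hours, with CCCP as control. PINK1 levels and mitochondrial localization were measured by immunofluorescence with mitochondrial, cell and nuclear markers after fixation, read by laser-scanning cytometry.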
# D2 potentiator = human D2 receptor positive allosteric modulation. DiscoveRx D2 beta-arrestin cells, luminescence, 90 min; 100% = 57 uM dopamine signal. hit rate 0.23% among 360,000. AID 624464. P14416. potentiation, % (test concentration not listed); active = potentiation of 50% or more; inconclusive = 30% to 50%; inactive = 30% or less;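 further: compound concentration not given in the record; tested on top of an EC20 dose of dopamine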
# Target sequence (P14416 whole entry, looked up): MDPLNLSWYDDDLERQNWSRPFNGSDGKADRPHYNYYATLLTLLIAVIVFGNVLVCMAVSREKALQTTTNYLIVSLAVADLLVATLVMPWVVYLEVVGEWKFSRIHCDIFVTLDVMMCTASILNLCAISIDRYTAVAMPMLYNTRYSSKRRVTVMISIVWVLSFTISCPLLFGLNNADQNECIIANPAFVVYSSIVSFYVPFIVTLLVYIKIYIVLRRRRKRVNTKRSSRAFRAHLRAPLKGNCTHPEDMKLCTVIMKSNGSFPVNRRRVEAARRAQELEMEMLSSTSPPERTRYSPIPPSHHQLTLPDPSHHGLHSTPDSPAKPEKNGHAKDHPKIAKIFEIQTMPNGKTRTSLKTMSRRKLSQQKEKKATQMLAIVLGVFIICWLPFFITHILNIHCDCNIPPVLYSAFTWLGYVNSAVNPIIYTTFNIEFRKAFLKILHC
#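 PathHunter beta-arrestin assay in DiscoveRx D2 cells. Compounds were added with an EC20 of dopamine (50 nM final) for 90 min at 37 deg C. Luminescence was read 1 h after detection reagent, with 57 uM dopamine as the EC100 control.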
# D2 agonist = human D2 receptor agonism in beta-arrestin assay; P14416; DiscoveRx PathHunter D2 beta-arrestin, luminescence, 90 min; 100% = 57 uM dopamine signal; activation, % (test concentration not listed); hit rate 0.084% among 360,000; in the data active = activation above about 40%; inconclusive = about 15% to 40%; inactive = below about 15%; further: compound concentration not given in the record; the text of the record calls up to 30% inactive
#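 DiscoveRx PathHunter D2 beta-arrestin cells (2,100/well) attached overnight, then compound-stimulated 90 min at 37 C in HBSS/10 mM HEPES/0.1% Tween-20 buffer; beta-galactosidase complementation read by luminescence after 1 h at ambient temperature. Dopamine 57 uM final (EC100) as control.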
# * = called active by the depositor; u = inconclusive; x = no result given; [ ] = another dose, or the depositor's remark.
SMILES,Six1-Eya2 inh,CtBP-E1A blk,Sfp inh,TRPV1 PAM,PINK1 expr mod,D2 potentiator,D2 agonist
COC(=O)CSc1nnc(COc2ccc3ccccc3c2)o1,5,6,1%,-1,0.4%,2,5.4
O=C1c2ccccc2-c2nc3ccccc3nc21,-21,-18,3%,0,-2.1%,-1,-6.2
O=C(NC(=S)N1CCN(c2ccc(Cl)cc2[N+](=O)[O-])CC1)c1ccco1,-29,-6,6%,-23,1.3%,-9,-8.3
Cc1c(C(=O)C(=O)NCCCn2ccnc2)c2ccccc2n1C,6,9,16%,9,1.4%,4,4.7
COc1ccc(OC)c(N(C(=O)c2ccco2)C(C(=O)NC2CCCC2)c2ccc(N3CCOCC3)cc2)c1 (stereo not given),5,-8,10%,4,6.1%,-10,-0.8
COc1ccc(N(Cc2ccccc2)S(=O)(=O)c2cccc(C(=O)Nc3ccccn3)c2)cc1,0,-8,x,-1,0.7%,-13,1.9
Cc1ccc(CN2CCN(CCCn3cnc4c(OCc5ccccc5)ncnc43)CC2)cc1,-15,u,x,x,-0.7%,x,0.1
CN(CC(=O)Nc1ccc(Cl)c(Cl)c1)C(=O)CN1C(=O)NC2(CCCC2)C1=O,3,-3,x,17,3.8%,0,-1.3
O=C(NCc1ccc(CNC(=O)c2ccco2)cc1)c1ccco1,5,-1,9%,-8,-0.7%,5,-0.3
C=CC[C@@H](CC(=O)NCCO)C(=O)N[C@H](COC(=O)[C@H](CC=C)CC(=O)OC(C)(C)C)Cc1c[nH]c2ccccc12,-3,0,x,x,0.8%,x,2.3
O=C(Nc1ccc(Cl)c(C(F)(F)F)c1)C1Cc2c(-c3ccc4c(c3)OCO4)ccnc2O1 (stereo not given),-8,-12,x,x,14%,-9,-2.3
CS(=O)(=O)N1CCCCC1c1cc(C(=O)Nc2ccc3c(c2)OCO3)no1 (stereo not given),-1,-25,x,x,0.4%,-6,-6.3
O=C(C1CCN(CCc2ccccc2)CC1)N1CCOCC1,0,3,x,x,-0.9%,-25,-0.3
Cc1cccc(NC(=S)NCc2ccc3[nH]c4c(c3c2)CCCC4)c1,u,-26,2%,5,19%,-4,-6.1
O=C(Nc1nccs1)[C@@H]1CCCN1C(=O)c1cccs1,0,-2,8%,10,-0.6%,-5,-3.2

# An excerpt from above in order of the D2 agonist value, ascending.
mol | D2 agonist
O=C1c2ccccc2-c2nc3ccccc3nc21 | -6.2
O=C(Nc1nccs1)[C@@H]1CCCN1C(=O)c1cccs1 | -3.2
O=C(C1CCN(CCc2ccccc2)CC1)N1CCOCC1 | -0.3
Cc1c(C(=O)C(=O)NCCCn2ccnc2)c2ccccc2n1C | 4.7
COC(=O)CSc1nnc(COc2ccc3ccccc3c2)o1 | 5.4

# Carrying on:
SMILES,Six1-Eya2 inh,CtBP-E1A blk,Sfp inh,TRPV1 PAM,PINK1 expr mod,D2 potentiator,D2 agonist
COc1ccc(OCC(=O)NNC(=O)c2cccc(C)c2)cc1,-3,8,12%,8,-0.2%,-6,2.9
CCc1ccccc1NC(=O)CSc1nc2n[nH]c(C)c2c(=N)n1-c1cccc(OC)c1,u,-70*,-1%,-6,-5.5%[38.3 µM],-4,-0.4
N/C(=N\OS(=O)(=O)c1ccccc1)c1cccnc1,2,4,-6%,-10,8.7%,-6,-1.7
O=[N+]([O-])c1ccc2c(c1)C(N1CCOCC1)/C(=C/COc1ccc(F)cc1)O2 (stereo not given),-11,-4,7%,-7,-0.1%,-18,-0.7
Cc1ccc(C(=O)c2c3ccc([N+](=O)[O-])cc3[n+]([O-])n2CCCN)cc1,-18,-13,x,-33,-0.7%,5,u
O=C(CSc1nnc(NC(=O)c2ccc(S(=O)(=O)N3CCOCC3)cc2)s1)Nc1ccccc1C(F)(F)F,10,27,17%,-5,11%,2,-3.3
O=C(Nc1ccc2c(c1)OCCO2)c1cc2sccc2n1Cc1ccc(F)cc1,-24,-8,17%,-20,1.7%,-8,0.6
CCN(C(=O)COC(=O)c1ccc(O)cc1)c1cccc2ccccc12,-29,-6,x,x,-0.1%,4,0.3
CCn1c(COc2ccccc2C)nc2ccccc21,12,10,13%,-15,-0.4%,-12,3.0
CC(C)NC(=O)N1CCCN(c2nc3ccc(Cl)cc3s2)CC1,-1,-25,8%,-5,2.6%,-19,4.1
COc1cccc2cc(C(=O)Nc3cc(Cl)ccc3N3CCOCC3)c(=O)oc12,3,-5,11%,0,7.0%,2,7.2
Cc1nn(-c2ccccc2)c(N2CCCC2)c1/C=N/NC(=S)Nc1ccccc1C(F)(F)F,-18,-12,12%,-9,0.9%,-24,0.1
O=C(c1ccccc1-n1cccn1)N1CCc2c([nH]c3ccccc23)C1c1ccccn1 (stereo not given),-9,-13,10%,-10,2.0%,-2,-3.3
CC1=C(C(=O)N(C(C)C)C(C)C)CC(CC(=O)NCCN2CCOCC2)C(=O)N1Cc1ccc(C(C)(C)C)cc1 (stereo not given),-2,2,x,x,-0.6%,-8,-7.2
COc1ccc(CNS(=O)(=O)c2ccc(N3CCCC3)cc2Br)cc1,0,0,x,x,0.9%,-5,-1.0

# The list goes on, starting with the last 4 of the part before.
SMILES,Six1-Eya2 inh,CtBP-E1A blk,Sfp inh,TRPV1 PAM,PINK1 expr mod,D2 potentiator,D2 agonist
Cc1nn(-c2ccccc2)c(N2CCCC2)c1/C=N/NC(=S)Nc1ccccc1C(F)(F)F,-18,-12,12%,-9,0.9%,-24,0.1
O=C(c1ccccc1-n1cccn1)N1CCc2c([nH]c3ccccc23)C1c1ccccn1 (stereo not given),-9,-13,10%,-10,2.0%,-2,-3.3
CC1=C(C(=O)N(C(C)C)C(C)C)CC(CC(=O)NCCN2CCOCC2)C(=O)N1Cc1ccc(C(C)(C)C)cc1 (stereo not given),-2,2,x,x,-0.6%,-8,-7.2
COc1ccc(CNS(=O)(=O)c2ccc(N3CCCC3)cc2Br)cc1,0,0,x,x,0.9%,-5,-1.0
C=CCOc1cccc(CNCc2cccnc2)c1,7,-6,-13%,-2,0.4%,-17,1.7
COc1ccc(C(=O)N2CCSCC2)cc1OC1CCN(C(C)=O)CC1,15,-5,8%,28,-0.8%,-9,-3.3
CC(=O)Nc1ccc(NC(=O)CSc2nnc(COc3ccccc3C)n2CC2CCCO2)cc1 (stereo not given),12,0,7%,7,0.3%,-3,0.7
COc1ccc(/C=C(/C#N)C(=O)Nc2cccnc2)cc1OC,-2,7,7%,-6,2.2%,-5,1.0
O=C(Nn1c(-c2ccc(Br)cc2)nc2ccccc2c1=O)c1ccncc1,3,10,16%,-3,-1.0%,-4,-12
COc1ccccc1C(=O)Nc1ccnn1C1CCN(Cc2ccn[nH]2)CC1,-1,5,7%,-6,-0.4%,-17,-4.0
O=C(Nc1c2c(nn1-c1cccc(Cl)c1)CS(=O)(=O)C2)c1ccc2c(c1)OCO2,0,x,-22%,13,0.3%,-5,7.3
Cc1nn(-c2ccc([N+](=O)[O-])cc2)c2c1C(c1ccc(OC(F)F)cc1)N1C(=N2)C(=O)Nc2ccccc21 (stereo not given),-2,-2,8%,-2,2.9%,-3,3.4
O=C(NCCN1CCCC(O)C1)c1cc(COc2cccc(C(F)(F)F)c2)on1 (stereo not given),3,-2,x,x,2.9%,15,7.4
O=[N+]([O-])c1cc(S(=O)(=O)N2CCCC2)ccc1N/N=C/c1cccnc1,13,3,10%,-3,2.0%,-4,0.9
COc1cccc(CN2CCN(C3CCN(c4ccccc4F)CC3)CC2CCO)c1 (stereo not given),-2,0,9%,2,-1.8%,-16,-2.4
CCCN(CC1CC1)C(=O)CSc1nnc(-c2cc(-c3cccs3)nc3ccccc23)o1,6,8,-2%,0,0.0%,17,0.1
Cc1cc(Cl)ccc1OCC(=O)OCC(=O)Nc1ccc(F)c([N+](=O)[O-])c1,0,-23,15%,-12,-0.7%,20,-1.6
CCOc1cc(NC(=S)NCCc2ccccc2)c(OCC)cc1NC(C)=O,5,-1,24%,-2,1.8%,-4,-6.2
COC(=O)c1c(C(=O)OC)c(-c2cccc(F)c2)n2c1CS(=O)(=O)C2,0,x,12%,11,1.5%,-10,-2.6

# 2 compounds from above, showing only D2 potentiator, Six1-Eya2 inh and PINK1 expr mod.
canonical_smiles	D2 potentiator	Six1-Eya2 inh	PINK1 expr mod
COc1ccc(C(=O)N2CCSCC2)cc1OC1CCN(C(C)=O)CC1	-9	15	-0.8%
CC(=O)Nc1ccc(NC(=O)CSc2nnc(COc3ccccc3C)n2CC2CCCO2)cc1 (stereo not given)	-3	12	0.3%

# Next part:
SMILES,Six1-Eya2 inh,CtBP-E1A blk,Sfp inh,TRPV1 PAM,PINK1 expr mod,D2 potentiator,D2 agonist
COc1ccc(C2(NC(C)=O)CCN(Cc3cccnc3)CC2)cc1,10,8,5%,7,0.2%,-12,2.9
COC(=O)c1ccccc1NC(=O)C1CCC(=O)N1S(=O)(=O)c1ccc(C)cc1 (stereo not given),5,14,-1%,u,0.9%[38.3 µM],-10,2.8
COc1ccc(S(=O)(=O)NCc2ccc(C(=O)N3CCN(Cc4ccccc4)CC3)cc2)cc1,-3,-14,11%,9,-1.7%,-25,-2.2
O=C(CSc1ccccc1)N1CCN(c2ccc(F)cc2)CC1,18,-8,x,x,1.0%,-11,-3.8
COc1ccccc1C(=O)NC(=O)CSc1nnc(SC)s1,8,5,x,0,1.2%,-29,10
S=C(c1ccc(-c2ccc(Cl)cc2Cl)o1)N1CCCC1,-2,x,14µM*,-7,11%,-14,-4.4
Cc1cc(Cl)ccc1OCCCC(=O)NCc1ccccn1,-2,11,2%,-13,3.1%,-2,-2.3
COc1ccc(CCNC(=O)COC(=O)Cn2cnc3ccccc32)cc1OC,0,3,11%,3,1.3%,1,0.9
O=C(Cn1cnnn1)NC1CCCN(Cc2ccccc2F)C1 (stereo not given),6,9,12%,-4,-1.6%,9,0.2
Cc1ccc(CN2CCN(Cc3ccc4cccc(F)c4n3)CC2CCO)cc1 (stereo not given),9,0,10%,0,0.5%,-2,-5.2
CCC(C)[C@H](NC(=O)N1c2ccccc2NC(=O)[C@@H]1C(C)C)C(=O)N[C@@H](Cc1ccccc1)C(=O)O (stereo not given in full),8,8,13%,-1,-1.1%,-25,-3.2
c1csc(-c2cc(N3CCCCC3)c3ccccc3n2)c1,25,38,-17%,-5,16%,-8,-2.1
O=C(Cc1ccc(Cl)cc1Cl)Nc1ccncc1Cl,-12,-3,8%,2,0.4%,-7,-3.1
N#Cc1cccnc1Oc1ccccc1,19,4,14%,-1,0.7%,0,1.8
CC(=O)c1cc2c(cc1NC(=O)Cc1ccsc1)OCO2,16,x,x,-8,0.7%,3,6.0

# Rows are unselected. About 3.7% of those tested had a hit in this group.
